# Assay outcomes from PubChem.
# MITF inh = inhibitors of MITF; inhibition, % (no concentration beside the values); TRPM1 promoter luciferase, luminescence, 24 h; actives 0.28% (n = 37,000); AID 2240;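 active means most replicates at 85% or more, or half of them and the mean; inconclusive means half reach 85% but not the mean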;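 further: human melanocyte line stably carrying TRPM1 promoter luciferase reporter; 0% = vehicle wells and 100% = a positive control; the first replicate is given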
# Shh pathway inh = blocks Sonic Hedgehog signaling | inhibition, % (test concentration not listed) | actives 2.1% (n = 22,000) | Shh-LIGHT2 Gli-luciferase reporter, 30 h;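 active means replicate mean of 65% or more; inconclusive means mean lower but half the replicates past it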;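 further: pathway switched on by Shh-conditioned medium diluted 1 in 25 in low serum; 100 nL library stock added to about 40 µL; 0% = median of neutral wells and 100% = positive control level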
# PD-1 reversal = activators reversing PD-1 mediated T-cell inhibition; primary human CD4 T cells, PD-L1 beads, CellTiter-Glo 96 h; activation, % (concentration not given with the values); 29,000 tested, under 10 active; AID 2316;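 active means replicate mean of 50% or more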;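 further: 0% = median vehicle wells and 100% = positive control; 100 nL library stock added to about 50 µL; numbers are from one replicate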
# YB-1 expression = YB-1 expression inhibition; U2OS, qRT-PCR YB-1 vs CDIP delta delta Cp, 16 h; active compounds read high; zero = DMSO, each unit about twofold; delta delta Cp (YB-1 minus CDIP) (no concentration beside the values); AID 434959; actives 0.37% (n = 30,000);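 active means delta delta Cp rounded down to an integer at or above 3, about 3 SD of DMSO wells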;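 further: higher means less YB-1 transcript or more CDIP transcript relative to DMSO; stock transfer was 100 nL into about 100 µL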
# * marks the source's active call; other numbers are inactive results; u = inconclusive; x = not tested or not shown.
# Start of the data: the first 2 records, to show the layout:
# Values in the order – MITF inh, Shh pathway inh, PD-1 reversal, YB-1 expression
C[C@H](CO)N1C[C@H](C)[C@@H](CN(C)Cc2ccccc2)Oc2ccc(NC(=O)Nc3ccc(F)cc3)cc2C1=O
    -7.8, 11.2, 0.5, -0.299
Cc1ccc(S(=O)(=O)N(C)C[C@H]2Oc3ccc(NC(=O)Nc4cccc5ccccc45)cc3CC(=O)N([C@@H](C)CO)C[C@H]2C)cc1
    19.1, 13.6, -1.6, 0.138

# This part in full (from the top)
# Values in the order – MITF inh, Shh pathway inh, PD-1 reversal, YB-1 expression
C[C@H](CO)N1C[C@H](C)[C@@H](CN(C)Cc2ccccc2)Oc2ccc(NC(=O)Nc3ccc(F)cc3)cc2C1=O
    -7.8, 11.2, 0.5, -0.299
Cc1ccc(S(=O)(=O)N(C)C[C@H]2Oc3ccc(NC(=O)Nc4cccc5ccccc45)cc3CC(=O)N([C@@H](C)CO)C[C@H]2C)cc1
    19.1, 13.6, -1.6, 0.138
Cc1oc2c(c1C(=O)NCCC(C)C)C(=O)c1ccccc1C2=O
    u, 90.4*, -4.8, 1
Cc1c(Br)sc2sc(-c3nn(C)cc3Br)c(C)c12
    6.3, 16.0, -3.2, 0.0508
COc1ccc(S(=O)(=O)Nc2ccc3c(c2)C(=O)N([C@H](C)CO)C[C@H](C)[C@H](CN(C)C(=O)Nc2ccc(F)cc2)O3)cc1
    -10.4, x, x, 0.123
C[C@H](CO)N1C[C@H](C)[C@H](CN(C)C)Oc2c(NS(=O)(=O)c3ccc(F)cc3)cccc2C1=O
    2.0, -14.8, 1.9, -0.308
C[C@@H]1CN([C@H](C)CO)C(=O)c2cccc(NC(=O)Nc3ccc4c(c3)OCO4)c2O[C@@H]1CN(C)C(=O)Nc1ccc(F)cc1
    -21.2, -21.6, 1.8, 0.0183
COc1ccc(-c2ccc(CCC(=O)O)n2-c2ccc(N(C)C)cc2)cc1
    -20.5, x, -1.8, x
C[C@H]1CN([C@@H](C)CO)C(=O)Cc2cc(NC(=O)CCCN(C)C)ccc2O[C@H]1CN(C)Cc1ccc(-c2ccccc2)cc1
    -5.1, -2.2, x, -0.152
Cc1ccc(S(=O)(=O)Nc2cccc(C(=O)NC(C)(C)CO)c2)cc1
    16.3, x, -1.7, x
Nc1nc(CN2CCN(C(=O)c3ccco3)CC2)nc(N2CCCc3ccccc32)n1
    -13.9, x, -1.2, x
COc1cc2c(cc1NC(=S)NCc1ccco1)oc1ccccc12
    -5.8, x, -9.8, x
C[C@@H]1CN([C@H](C)CO)C(=O)c2cc(NS(C)(=O)=O)ccc2O[C@@H]1CN(C)Cc1ccc(Oc2ccccc2)cc1
    16.7, 23.6, x, 0.0526
Cc1ccc(S(=O)(=O)NC2=NCN(CCN3CCOCC3)CN2)cc1
    -10.9, -13.7, -0.6, -0.493
C[C@@H]1CN([C@@H](C)CO)C(=O)c2cc(NC(=O)Nc3ccc(C(F)(F)F)cc3)ccc2O[C@@H]1CN(C)S(=O)(=O)c1ccccc1
    80.2, u, -1.1, 2.03
C[C@H](CO)N1C[C@H](C)[C@@H](CN(C)C(=O)Nc2ccc3c(c2)OCO3)Oc2c(NC(=O)CCCCCC(=O)Nc3ccccc3N)cccc2C1=O
    -18.7, x, 1.3, -0.0587
C[C@H](CO)N1C[C@H](C)[C@H](CN(C)Cc2ccc(C(=O)Nc3ccccc3N)cc2)Oc2ccc(NC(=O)Cc3ccccc3)cc2C1=O
    13.3, x, -2.1, -0.45
C[C@@H]1CN([C@H](C)CO)C(=O)c2cccc(NC(=O)c3cnccn3)c2O[C@@H]1CN(C)S(=O)(=O)c1cn(C)cn1
    -3.0, 1.5, 2.6, -0.0443
Cc1ccc(C(C)C)c(OCc2ccc(N)cc2)c1
    3.1, -22.2, -0.6, 0.25
COc1cc(S(=O)(=O)n2nnc3ccccc32)c(OC)cc1Cl
    42.9, x, -1.3, x
CS(=O)(=NS(=O)(=O)c1cccs1)c1ccc(OC(=O)c2ccc(Cl)cc2)cc1 (stereo not given)
    -21.6, 1.4, -0.6, -0.547
CNC[C@@H]1Oc2ccc(NS(=O)(=O)c3cccs3)cc2CC(=O)N([C@@H](C)CO)C[C@@H]1C
    1.3, 19.7, -1.0, -0.711
O=C(NCc1ccccn1)c1cnn2c1NC(c1cccs1)CC2C(F)(F)F (stereo not given)
    4.5, x, -1.1, x
Cc1ccc(S(=O)(=O)N(C)C[C@H]2Oc3ccc(NS(=O)(=O)c4ccc(Cl)cc4)cc3CC(=O)N([C@H](C)CO)C[C@H]2C)cc1
    15.6, -30.6, -3.0, 0.551
Cc1noc(C)c1NC(=O)Nc1cccc2c1O[C@H](CN(C)S(=O)(=O)c1cn(C)cn1)[C@@H](C)CN([C@H](C)CO)C2=O
    -7.0, -11.0, 2.2, 0.254
C[C@H](CO)N1C[C@H](C)[C@@H](CN(C)S(=O)(=O)c2ccccc2)Oc2c(NC(=O)C3CCOCC3)cccc2C1=O
    -7.4, 13.3, x, 0.0814
Cc1noc(C)c1S(=O)(=O)Nc1ccc2c(c1)CC(=O)N([C@H](C)CO)C[C@@H](C)[C@@H](CN(C)Cc1ccncc1)O2
    -19.5, 48.0, -0.4, -0.237
C[C@H](CO)N1C[C@H](C)[C@H](CN(C)C(=O)Nc2ccc3c(c2)OCO3)Oc2c(NC(=O)C3CCCCC3)cccc2C1=O
    -6.4, -48.5, -2.4, -0.197
Cc1ccc(-c2nnc(SCC(=O)Nc3ccc4c(c3)oc3ccccc34)n2C)c(Cl)c1
    -8.3, x, 1.8, x
Cc1ccc2nc(S/C=C/C(=O)c3ccccc3)[nH]c2c1
    69.2, 47.7, -32.7, -0.344
C[C@H](CO)N1C[C@H](C)[C@H](CN(C)C(=O)Nc2ccccc2)Oc2ccc(NC(=O)C3CC3)cc2C1=O
    -5.9, x, 0.5, -0.419
O=C(CSc1nnc(-c2ccc(Br)cc2)o1)Nc1ccccc1Cl
    -49.5, x, 1.5, x
Cc1noc(C)c1NC(=O)N(C)C[C@@H]1Oc2ccc(NC(=O)C3CCCCC3)cc2C(=O)N([C@@H](C)CO)C[C@H]1C
    -3.6, -5.9, -0.4, -0.0842
COC(=O)CCCCC(=O)c1[nH]c(=O)[nH]c1C
    -43.7, x, 1.3, x
C[C@H](CO)N1C[C@H](C)[C@@H](CN(C)CC2CCCCC2)Oc2ccc(NS(=O)(=O)c3cccs3)cc2C1=O
    -9.8, 33.0, 1.6, 0.00184
COc1ccc(NC(=O)Nc2ccc3c(c2)C(=O)N([C@H](C)CO)C[C@H](C)[C@@H](CN(C)C(=O)Nc2c(C)noc2C)OCCCC[C@@H](C)O3)cc1
    -8.1, -7.5, x, 0.0278
C[C@@H]1CN([C@@H](C)CO)C(=O)c2cccc(NC(=O)c3ccc(-c4nccs4)cc3)c2O[C@H]1CN(C)S(=O)(=O)c1ccccc1
    -5.1, -2.0, 1.3, 0.00153
CC(C)NC(=O)N(C)C[C@H]1Oc2ccc(NC(=O)CCCN(C)C)cc2C(=O)N([C@H](C)CO)C[C@@H]1C
    -2.1, -10.9, 0.5, 0.172
CNC(=O)Nc1cccc(-c2cc(-c3c(Cl)cccc3Cl)no2)c1
    22.2, 3.9, -0.8, 0.358
C[C@@H]1CN([C@@H](C)CO)C(=O)Cc2cc(NC(=O)NC3CCCCC3)ccc2O[C@@H]1CN(C)S(=O)(=O)c1ccc(Cl)cc1
    -0.5, -5.8, x, 0.304
COc1ccc(NC(=O)N(C)C[C@@H]2Oc3ccc(NC(=O)C4CC4)cc3C(=O)N([C@@H](C)CO)C[C@@H]2C)cc1
    -1.7, -14.2, 0.2, 0.37
COc1ccc(S(=O)(=O)N(C)C[C@@H]2Oc3c(NS(C)(=O)=O)cccc3C(=O)N([C@H](C)CO)C[C@@H]2C)cc1
    -7.3, 8.8, 0.9, 0.163
COc1ccc(NC(=O)N(C)C[C@@H]2Oc3ccc(NC(=O)Nc4ccc(F)cc4)cc3CC(=O)N([C@H](C)CO)C[C@H]2C)cc1
    -3.3, 12.5, x, 0.0312
C[C@H]1CN([C@@H](C)CO)C(=O)c2cc(NC(=O)Nc3ccc4c(c3)OCO4)ccc2O[C@H]1CN(C)Cc1ccc(C(=O)Nc2ccccc2N)cc1
    -5.0, x, -1.0, -0.224
CC(C)NC(=O)N(C)C[C@@H]1Oc2ccc(NC(=O)Cc3cn(C)c4ccccc34)cc2C(=O)N([C@H](C)CO)C[C@H]1C
    10.6, -2.7, 0.1, 0.178
Cc1ccccc1Cn1nc(C)c(NC(=O)C2CC(c3cccc(Br)c3)=NO2)c1C (stereo not given)
    45.1, x, -2.3, x
C[C@@H]1CN([C@@H](C)CO)C(=O)c2cc(NS(=O)(=O)c3cn(C)cn3)ccc2O[C@@H]1CN(C)S(=O)(=O)c1ccc(Cl)cc1
    -13.3, -31.7, 2.0, 0.242
Cc1ccc(-n2c(SCC(=O)Nc3ccc(Cl)cc3C)nnc2-c2ccccc2)cc1
    16.4, x, 1.8, x
C[C@@H]1CN([C@@H](C)CO)C(=O)c2cc(NC(=O)Nc3ccc(C(F)(F)F)cc3)ccc2O[C@H]1CN(C)S(C)(=O)=O
    -13.1, 7.1, x, 1.64
COC(=O)c1ccccc1NC(=O)CN(c1ccc(F)cc1)S(C)(=O)=O
    -16.9, x, 0.8, x
O=C1CNC(=S)N1CCc1ccccc1
    -35.3, 49.6, -10.0, -0.211
COc1ccc(S(=O)(=O)Nc2ccc3c(c2)C(=O)N([C@H](C)CO)C[C@H](C)[C@@H](CN(C)S(=O)(=O)c2ccc(C)cc2)OCCCC[C@@H](C)O3)cc1
    30.7, 58.3, x, -1.42
O=C(CSc1n[nH]c(-c2ccc(Cl)cc2Cl)n1)Nc1cccc2ccccc12
    13.2, x, 0.8, x
COc1ccc(S(=O)(=O)N(C)C[C@@H]2OCCCC[C@@H](C)Oc3ccc(NC(=O)CCCCCC(=O)Nc4ccccc4N)cc3C(=O)N([C@H](C)CO)C[C@@H]2C)cc1
    -27.9, x, 1.6, 0.16
Cc1noc(C)c1S(=O)(=O)N(C)C[C@H]1Oc2ccc(NC(=O)C3CC3)cc2CC(=O)N([C@H](C)CO)C[C@H]1C
    1.5, -13.3, 0.7, 0.0893
COc1ccc(NC(=O)Nc2ccc3c(c2)C(=O)N([C@H](C)CO)C[C@@H](C)[C@@H](CN(C)C)O3)cc1
    -5.1, x, 0.7, 0.0362
Cc1noc(C)c1NC(=O)Nc1ccc2c(c1)CC(=O)N([C@H](C)CO)C[C@@H](C)[C@@H](CN(C)S(=O)(=O)c1ccc(F)cc1)O2
    -3.2, 13.3, x, 0.262
C[C@@H]1CN([C@H](C)CO)C(=O)Cc2cc(NS(C)(=O)=O)ccc2O[C@H]1CN(C)Cc1ccc(C(=O)Nc2ccccc2N)cc1
    -3.4, x, -0.4, -0.0445
C[C@H](CO)N1C[C@H](C)[C@H](CN(C)Cc2ccncc2)Oc2ccc(NS(=O)(=O)c3ccc(F)cc3)cc2CC1=O
    -14.1, x, 1.2, 0.354
C[C@@H]1CN([C@H](C)CO)C(=O)c2cc(NC(=O)c3ccncc3)ccc2O[C@@H]1CN(C)S(=O)(=O)c1ccc(Cl)cc1
    -19.3, x, 0.0, 0.187

# (more compounds)
# Values in the order – MITF inh, Shh pathway inh, PD-1 reversal, YB-1 expression
C[C@H](CO)N1C[C@H](C)[C@H](CN(C)Cc2ccc(Oc3ccccc3)cc2)Oc2ccc(NC(=O)Nc3ccc(C(F)(F)F)cc3)cc2C1=O
    24.5, x, -12.2, 0.268
CNC[C@H]1Oc2ccc(NC(=O)NC3CCCCC3)cc2C(=O)N([C@H](C)CO)C[C@H]1C
    1.8, x, 0.0, 0.333
C#CCN(C)Cc1ccccc1
    1.5, -0.4, 5.3, -0.0368
C=CCn1c(CSc2nc(N)cc(N)n2)n[nH]c1=S
    -7.3, x, 1.1, x
COc1ccc(S(=O)(=O)Nc2cccc3c2O[C@H](CN(C)C(=O)Nc2cccc4ccccc24)[C@H](C)CN([C@H](C)CO)C3=O)cc1
    -2.2, -31.2, x, 0.0317
C[C@@H]1CN([C@H](C)CO)C(=O)c2cccc(NS(=O)(=O)c3cccs3)c2O[C@@H]1CN(C)Cc1ccc(C(=O)Nc2ccccc2N)cc1
    29.3, x, -0.6, -0.125
C[C@@H]1CN([C@@H](C)CO)C(=O)c2cccc(NC(=O)c3cnccn3)c2O[C@@H]1CN(C)Cc1ccc(C(=O)Nc2ccccc2N)cc1
    32.1, x, -3.1, -0.512
COc1ccc(NC(=O)N(C)C[C@H]2Oc3c(NS(=O)(=O)c4ccc(F)cc4)cccc3C(=O)N([C@H](C)CO)C[C@@H]2C)cc1
    -8.8, -16.0, 1.0, -0.936
C[C@H](CO)N1C[C@H](C)[C@H](CN(C)C(=O)Nc2ccc(C(F)(F)F)cc2)Oc2c(NC(=O)C3CCCCC3)cccc2C1=O
    43.3, -14.1, -4.0, 0.253
C[C@H]1CN([C@@H](C)CO)C(=O)c2cccc(NS(C)(=O)=O)c2O[C@@H]1CN(C)S(=O)(=O)c1cccs1
    11.4, -10.6, -3.3, 0.295
C[C@@H]1CN([C@H](C)CO)C(=O)Cc2cc(NC(=O)NC3CCCCC3)ccc2O[C@@H]1CN(C)Cc1ccc(C(=O)O)cc1
    -7.1, -22.1, x, -0.254
C[C@@H]1CN([C@@H](C)CO)C(=O)Cc2cc(NC(=O)Cc3ccccc3)ccc2O[C@@H]1CN(C)C(=O)Nc1cccc2ccccc12
    8.9, x, -1.6, 0.55

# Some of the compounds tested (hit frequency here may not be typical).
